NS1 inh: inhibitors of influenza NS1 protein function | 270,000 compounds, 0.4% hits | S. cerevisiae slowed by influenza A NS1, growth recovery by OD600 | Potency, µM (titrated, usually from 46.1 µM), for the others: at the top dose activity, positive = more growth; note: actives are rising curves; nearly all actives have a fitted effect of over 50% in size
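Read-out: OD600 growth recovery of NS1-expressing budding yeast. Cells grown overnight at 30C in -URA glucose medium, washed, resuspended and diluted 1:100 in 2% galactose assay medium, pH 6.0. Same strain lacking NS1 served as positive control.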
Cruzain Triton: blocks cruzain activity in presence of Triton detergent; 200,000 compounds, 0.43% hits; Potency, µM, without a hit: max response, negative = inhibition, usual class: inhibitors; purified cruzain, Z-FR-AMC fluorescence, 0.01% Triton; P25779; active = well fitted curve in the direction sought with a large enough effect; inconclusive = small, poorly fitted or top-dose-only effect, or another doubt; inactive = no such curve, though single readings can be large; an effect the other way counts as inactive or inconclusive;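 note: plate controls were neutral wells for no effect and buffer without enzyme for full effect; nearly all actives have a fitted effect of over 40% in size; top concentration of the series not given in the record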
Target sequence (P25779 123-467 limits assumed): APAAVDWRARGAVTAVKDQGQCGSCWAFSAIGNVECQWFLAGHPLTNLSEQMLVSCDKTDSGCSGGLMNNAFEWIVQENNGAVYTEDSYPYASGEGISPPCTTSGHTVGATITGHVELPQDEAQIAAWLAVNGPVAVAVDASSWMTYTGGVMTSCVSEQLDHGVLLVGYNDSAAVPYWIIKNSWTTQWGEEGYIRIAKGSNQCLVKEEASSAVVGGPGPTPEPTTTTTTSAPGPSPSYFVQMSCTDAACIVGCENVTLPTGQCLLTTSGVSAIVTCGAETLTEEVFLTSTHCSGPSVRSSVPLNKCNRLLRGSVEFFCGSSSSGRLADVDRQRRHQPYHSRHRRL
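Enzyme 1.5 nM, Z-FR-AMC 2 uM, NaOAc 100 mM pH 5.5, DTT 5 mM, Triton X-100 0.01%; 15 min RT compound preincubation; kinetic ex360/em450, 60 s delta.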
2A StopGo: lowers the luciferase signal of an FMDV 2A StopGo reporter | 410,000 compounds, 1.2% hits | AID 1159524 | Potency, µM (titrated, usually from 57.9 µM), inactives show at the highest dose signal change, negative = less light | human cells with a luciferase reporter of 2A StopGo recoding; control for the full effect not named in the record; active = well fitted falling curve with a large enough effect; inconclusive = small, poorly fitted or top-dose-only effect; inactive = no such curve, though single readings can be large or run the other way; tested in HEK293T cells; note: % is set by controls: 0 for no effect and ±100 for the full control effect; nearly all actives have a fitted effect of over 45% in size; luciferase light after 4 h
RE007 growth inh: less growth of the S. pombe RE007 Vpr strain. Potency, µM (series often up to 92.2 µM), for inactives: at the highest dose activity change, negative = less growth. 360,000 compounds, 0.21% hits. S. pombe RE007 Vpr strain, BacTiter-Glo ATP luminescence, 24 h; control for the full effect not named in the record; active = well fitted falling curve with a large enough effect; inconclusive = small, poorly fitted or top-dose-only effect; inactive = no such curve, though single readings can be large or run the other way;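 note: % is set by controls: 0 for no effect and ±100 for the full control effect; nearly all actives have a fitted effect of over 50% in size; the assay follows cell death caused by Vpr and the record does not say whether a fall means rescue or toxicity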
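Fission yeast RE007 carrying one integrated HIV-1 vpr copy, seeded at OD 0.01 in PMG+AL medium with 23 nL pinned compound. Grown 24 h at 30 degrees; viability read by BacTiter-Glo luminescence after 5 min.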
LASV entry inh: Lassa virus entry inhibition; Lassa virus pseudotype entry inhibition, cell reporter; control for the full effect not named in the record; Potency, µM (series often up to 37.9 µM), without a hit: top-dose activity change, negative = inhibition, usual class: inhibitors; 300,000 compounds, 1.2% hits; AID 540256; active means well fitted inhibition curve with a large enough effect; inconclusive means small, poorly fitted or top-dose-only effect, or effect the other way; inactive means flat fitted curve, though single readings scatter; tested in HEK293 cells; note: % is set by controls: 0 for no effect and ±100 for the full control effect; nearly all actives have a fitted effect of over 50% in size; luciferase read-out
Marburg entry inh: blocks Marburg virus binding to or entry into cells. 300,000 compounds, 1.8% hits. Marburg virus pseudotyped entry inhibition, cell reporter; control for the full effect not named in the record; about a third of the inactives were read at about 46 µM. Potency, µM (series often up to 37.8 µM), for inactives: at the highest dose activity change, negative = inhibition, actives largely listed as inhibitors; active = well fitted inhibition curve with a large enough effect; inconclusive = small, poorly fitted or top-dose-only effect, or effect the other way; inactive = flat fitted curve, though single readings scatter; tested in HEK293 cells; about a fifth of its hits are not listed in these tables; note: % is set by controls: 0 for no effect and ±100 for the full control effect; luciferase read-out
SARS PLpro yeast: SARS-CoV PLP inhibition in yeast. S. cerevisiae expressing SARS-CoV PLpro, growth rescue; control for the full effect not named in the record. Potency, µM (doses to about 32.9 µM), for the others: at the highest dose activity, positive = growth rescue. 330,000 compounds, 0.19% hits. AID 485353; note: 0% is about no effect; nearly all actives have a fitted effect of over 55% in size; growth read by luminescence after 48 h
Cruzain inh noDet: cruzain (T. cruzi) inhibition without detergent; P25779; purified cruzain, Z-FR-AMC fluorescence, no detergent; Potency, µM, without a hit: max response, negative = inhibition, hits mostly inhibitors; 200,000 compounds, 2.3% hits; active = well fitted curve in the direction sought with a large enough effect; inconclusive = small, poorly fitted or top-dose-only effect, or another doubt; inactive = no such curve, though single readings can be large; an effect the other way counts as inactive or inconclusive;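 note: plate controls were enzyme without inhibitor for no effect and buffer without enzyme for full effect; nearly all actives have a fitted effect of over 40% in size; top concentration of the series not given in the record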
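Purified cruzain at 1.5 nM, pre-incubated 15 min with compound at room temperature in 100 mM sodium acetate pH 5.5, 5 mM DTT, 0.00005% Triton X-100. Reaction started with 2 uM Z-FR-AMC; AMC fluorescence increase over 60 s gives rate.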
* marks the source's active call; other numbers are inactive results; ? = inconclusive; . = no result given; & = joins results of further samples; [ ] = dose if it differs, or a comment. Unless noted, calls come from the whole dose curve; as a rule, active means well fitted rising curve with a large enough effect; inconclusive means small, poorly fitted or top-dose-only effect; inactive means no such curve, though single readings can be large or run the other way. Potency is the fitted concentration of half-maximal effect.

SMILES	NS1 inh	Cruzain Triton	2A StopGo	RE007 growth inh	LASV entry inh	Marburg entry inh	SARS PLpro yeast	Cruzain inh noDet
COc1cccc(CNC(=O)CCC2CCCN(c3cc(C)nc(N)n3)C2)c1 (stereo unspecified)	-4%	.	-5%	-10%	-12%	-15%[46.1 µM]	-2%	.
CC(C)[C@H](NS(=O)(=O)c1cccc(Cl)c1)C(=O)OCC(=O)N1CCN(c2ccccc2)CC1	-49%	-6.8%	?	-5%	-9%	?	-16%	1%
Cc1cc(NC(=O)c2noc3c2CCCC3)n(-c2ccccc2)n1	-15%	1.0%	21%	?	5%	24%	-2%	7%
COc1cc2c(cc1OC)CN(C(=O)CSc1n[nH]c(N)n1)CC2	10%	4.4%	-17%	12%	-2%	17%	1%	11%
Cc1ccc(S(=O)(=O)Nc2cc(Cl)ccc2-n2cncn2)cc1	.	.	17%	-10%	9%	-13%	1%	.
Cc1ccc(-n2c(=O)[nH]c3sc4c(c3c2=O)CCCC4)cc1	.	0.6%	-21%	.	11%[46.1 µM]	-1%[46.1 µM]	.	20%
COC(=O)c1ccccc1NC(=O)c1cc(-c2ccc(Cl)cc2)on1	.	-1.1%	2%	.	-18%[46.1 µM]	-2%[46.1 µM]	.	6%
C=CCOC(=O)C1=C(C)NC(SC)=C(C#N)C1c1cccs1 (stereo unspecified)	2%	-11%	-27%	18%	-20%	?	-2%	0%
Cc1ccccc1CC(=O)N1CCCC(CNC(=O)c2ccc(F)cc2)C1 (stereo unspecified)	-4%	.	13%	-1%	.	.	0%	.
COc1ccc(-c2n[nH]c(=S)nc2-c2ccc(OC)cc2)cc1	8%	.	-15%	20%	.	.	2%	.
Cc1cccc(OCC(=O)NCCNC(=O)c2ccccn2)c1	-9%	.	4%	-3%	-14%[46.1 µM]	8%[46.1 µM]	1%	.
COc1ccc(NC(=O)CSc2nnc(Cc3cccn3C)n2-c2ccc(F)cc2)cc1	-8%	-3.3%	-8%	-10%	1%	?	-1%	?
Cc1ccc(NC(=O)COC(=O)CNC(=O)c2cccc([N+](=O)[O-])c2)cc1S(=O)(=O)N1CCCCCC1	?	-21%	-7%	4%	?	6%	11%	5%
c1nc2nc3c(c(N4CCOCC4)n2n1)CCCC3	?	2.8%	-7%	10%	-13%	-2%[46.1 µM]	16%	16%
COc1ccc(NC(=O)CN(c2cc(C)cc(C)c2)S(=O)(=O)c2c(C)noc2C)cc1OC	-118%	-5.1%	-23%	20%	1%	-16%&-16%	11%	?
Cc1ccc(S(=O)(=O)N2CCc3c2cc([N+](=O)[O-])cc3[N+](=O)[O-])cc1	1%	.	-28%	1%	.	.	-4%	.
CC(Oc1ccc(Cl)cc1Cl)c1ccn[nH]1 (stereo unspecified)	-8%	.	-11%	0%	0%	?	-3%	.
CCCCNC(=O)COC(=O)CCC(=O)c1ccc(Cl)cc1	.	.	-24%	-17%	14%[46.1 µM]	-7%[46.1 µM]	-2%	.
CCN(CC)CCCNC(=O)C1c2ccccc2C(=O)N(CCOC)C1c1ccc(F)cc1 (stereo unspecified)	.	.	-4%	-17%	8%	13%	0%	.
O=C(Nc1cn(-c2ccccc2)nc1-c1ccc(Cl)cc1)c1ccccc1	-14%	-4.4%	0%	-6%	0%	?	?	?
C=C(C)c1cccc(C(C)(C)NC(=O)NC2CCCC2)c1	10%	5.0%	0%	-2%	11%	6%	18%	-1%
COc1ccccc1N=Nc1ccc(O)c2ncccc12	-75%	.	-10%	?	.	.	3%	.
C[n+]1ccc(C(=O)NCCC[N+](C)(C)C)cc1/C=N/O	5%	.	-3%	8%	-6%	-3%[46.1 µM]	-1%	.
CNC(CC(=O)c1ccc([N+](=O)[O-])cc1)C(Cl)(Cl)Cl (stereo unspecified)	-24%	-8.9%	32µM*	13µM*	?	?	-107%	4%
COc1ccccc1NC(=O)c1cccc(S(=O)(=O)N2CCN(Cc3ccccc3)CC2)c1	.	.	-29%	8%	?	-17%[46.1 µM]	1%	.
O=C(Nc1ccccc1Cl)N1CCN(c2ncccn2)CC1	-11%	1.6%	-8%	-11%	20%	11%	-7%	-2%
CCCCCCCNC(=O)c1cc(-c2ccncc2)nc2ccccc12	5%	.	-27%	-15%	21%[46.1 µM]	?	-1%	.
COc1ccc2c(c1)C(c1ccc(N3CCOCC3)cc1)=NNC(c1cccnc1)=N2	10%	-8.4%	-20%	0%	17%	-11%	3%	-4%
Cc1ccc(/C([O-])=C(/C(=S)NCc2ccc3c(c2)OCO3)[n+]2ccc(N(C)C)cc2)c(C)c1	.	.	-13%	-10%	?	-3%[14.2 µM]	2%	.
NNC(=O)c1csc(-c2ccccc2)n1	2%	.	24%	-14%	2%	-4%	-2%	.
Cc1ccc(C)c(N2CCN(CC3CC=CCC3)CC2)c1 (stereo unspecified)	-5%	3.1%	.	-12%	-30%	?	-7%	-2%
O=C(CNC(=O)c1cccnc1)N/N=C/c1cccnc1	2%	.	-10%	-6%	1%[46.1 µM]	-11%[46.1 µM]	0%	.
CS(=O)(=O)c1ccccc1C(=O)Nc1ccc(S(=O)(=O)N2CCCC2)cc1	.	.	12%	8%	2%[46.1 µM]	16%[46.1 µM]	10%	.
Cn1c(=O)c([N+](=O)[O-])c(NCC2CCCO2)c2ccccc21 (stereo unspecified)	-2%	.	7%	-8%	.	.	0%	.
Cc1cccc(CNC(=O)C2CCN(c3nc4ccc(Cl)cc4[nH]3)CC2)c1	.	-4.8%	-10%	.	-8%[46.1 µM]	.	.	-9%
CCOC(=O)c1ccc(NC(=O)NC2CC3CCC(C2)N3Cc2nnnn2C(C)(C)C)cc1 (stereo unspecified)	2%	-1.8%	?	-8%	-12%	?	-2%	-1%
C[N+]1(CC2COC(c3ccco3)O2)CCCCC1 (stereo unspecified)	.	.	-9%	6%	1%	?	0%	.
CCCCOc1ccc(C(=O)Nc2ccc(S(=O)(=O)Nc3cc(C)on3)cc2)cc1OC	1%	2.8%	5%	-10%	16%	2%	-1%	12%
COCC(=O)Nc1nc2ccc(C)cc2s1	5%	-4.1%	12%	-11%	?	?	-4%	17%
CCOc1ccc(CCNC(=O)CCCn2nc(C)c3sc4ccccc4c3c2=O)cc1	.	-8.5%	-17%	.	?	?	.	?
O=C(CCS(=O)(=O)c1ccc(Br)cc1)NCc1ccc(F)cc1	0%	.	-10%	11%	.	.	1%	.
CC(OC(=O)/C=C/c1cccs1)C(=O)NC1CCCCC1C (stereo unspecified)	23%	.	-27%	-9%	11%[46.1 µM]	-4%[46.1 µM]	?	.
COC(=O)C1=C(O)/C(=C\c2cc(C)n(-c3ccccc3C)c2C)N=C1C	5%	-3.1%	.	-4%	21%	?	-3%	-4%
[O-][n+]1cccc2ncc3cscc3c21	-3%	-1.2%	4%	9%	27%	11%	-5%	0%
COc1cc(Nc2nc(SCc3ccccc3Cl)nc3ccccc23)cc(OC)c1	.	1.0%	-21%	.	14%[46.1 µM]	.	.	16µM*
Cc1cc(Br)ccc1NC(=O)C1CCN(S(=O)(=O)c2cccc3nsnc23)CC1	.	6.1%	-25%	.	-1%[46.1 µM]	?	.	?
CC(=O)Nc1ccc(NC(=O)COC(=O)Cn2cnc3ccccc32)cc1	.	.	-16%	10%	1%	-4%	-3%	.
COc1ccc(C(=O)N2CCN(C(=O)Cc3ccccc3)CC2)cc1OC	2%	1.5%	.	4%	-13%	-2%	4%	-1%
Cc1nc(C)c(-c2ccc(SCC(=O)Nc3cccc(Cl)c3C)nn2)s1	-5%	.	-16%	3%	?	?	-1%	.
S=C(NCC1CCCO1)NC1CCCC1 (stereo unspecified)	.	.	1%	9%	11%[46.1 µM]	28%[46.1 µM]	-1%	.
CCCCn1c(N)c(N(CCOC)C(=O)c2cc(S(=O)(=O)N3CCOCC3)ccc2F)c(=O)[nH]c1=O	.	.	-4%	6%	2%	11%	1%	.
CCOc1cc(N2CCOCC2)c(OCC)cc1NC(=O)COC(=O)/C=C/c1ccc(OC(F)F)cc1	.	.	-13%	-6%	6%[46.1 µM]	7%	5%	.
Cc1ccc(C)c(Cn2c(=O)n(Cc3ccco3)c(=O)c3oc4ccccc4c32)c1	.	1.1%	-1%	.	4%[46.1 µM]	.	.	?
CCN(CC)CCCCOc1ccccc1OC	7%	5.3%	-18%	-6%	-7%	4%	6%	10%
COc1ccc(CCCC(=O)NC(C)c2ccccc2)cc1 (stereo unspecified)	-14%	-3.1%	-24%	-3%	?	15%	10%	6%
NC(=O)C1CCN(C(=O)COc2ccc(S(=O)(=O)NC3CCCC3)cc2)CC1	-21%	.	0%	0%	3%[46.1 µM]	-2%[46.1 µM]	6%	.
COc1cc(N)ccc1NC(=O)c1cccs1	14%	3.9%	22%	13%	5%	?	-13%	-20%
COc1ccc(C(C)=O)cc1CSc1nnc(C)n1-c1ccccc1	12%	-3.9%	-22%	0%	-13%	-11%	-2%	-3%
CCCCNC(=O)Nc1nnc(SCC(=O)OCC)s1	-1%	.	1%	-2%	.	.	-1%	.
COC(=O)/C=C1\SC(=Nc2ccc(Cl)c(Cl)c2)NC1=O	.	.	0%	6%	-18%	14%[46.1 µM]	1%	.

Continuation.
SMILES	NS1 inh	Cruzain Triton	2A StopGo	RE007 growth inh	LASV entry inh	Marburg entry inh	SARS PLpro yeast	Cruzain inh noDet
CCOC(=O)c1[nH]c2c(c1Cc1ccccc1)C(=O)CC(c1ccccc1)C2 (stereo unspecified)	.	-3.3%	17%	.	-29%[46.1 µM]	?	.	-16%
O=C(COC(=O)/C=C/c1ccccc1[N+](=O)[O-])Nc1ccc2[nH]c(=O)[nH]c2c1	.	.	6%	4%	-1%[46.1 µM]	10%[46.1 µM]	-1%	.
COc1cc(SC)ccc1C(=O)Nc1ccc(Br)cn1	-7%	.	-93%	-4%	.	.	-1%	.
O=C(CN(C(=O)c1csnn1)c1ccc(Br)cc1)NC1CCCC1	-12%	.	15%	-4%	20%	6%[46.1 µM]	0%	.

Source: PubChem BioAssay
